Screening data as filed in PubChem BioAssay.
Vaccinia mCherry: qHTS for Stage-Specific Inhibitors of Vaccinia Orthopoxvirus: mCherry Reporter Primary qHTS. hit rate 0.63% among 310,000. AID 720579, 2013. Vaccinia virus mCherry reporter infection, fluorescence; about a quarter of the inactives have no number. Potency, µM (titrated, usually from 36.5 µM), for the others: at the top dose activity change, negative = inhibition, usual class: inhibitors; active = well fitted inhibition curve with a large enough effect; inconclusive = small, poorly fitted or top-dose-only effect; inactive = no such curve, though single readings can be large or run the other way; tested in A549 cells; also: nearly all actives have a fitted effect of over 35% in size; inactives centre near -10
VACV Venus inh: qHTS for Stage-Specific Inhibitors of Vaccinia Orthopoxvirus: Venus Reporter Primary qHTS | hit rate 0.46% among 330,000 | Potency, µM (titrated, usually from 36.5 µM), for inactives: at the highest dose activity change, negative = inhibition, hits mostly inhibitors | AID 720580, 2013 | Vaccinia virus Venus reporter expression, fluorescence; active means well fitted inhibition curve with a large enough effect; inconclusive means small, poorly fitted or top-dose-only effect; inactive means no such curve, though single readings can be large or run the other way; tested in A549 cells; also: nearly all actives have a fitted effect of over 30% in size; inactives centre near -10
* marks the source's active call; other numbers are inactive results; i = inactive; ? = inconclusive; / = not tested or not shown; & = joins results of further samples; [ ] = dose if it differs, or a comment. % is scaled to controls: 0 for no effect and ±100 for the full control effect; potency is read from the fitted curve at half-maximal effect.

SMILES,Vaccinia mCherry,VACV Venus inh
CCNC(=S)N1N=C2c3ccccc3CCC2C1c1ccc(F)cc1 (stereo unspecified),-17%,?
CC(OC(=O)c1cc(Cl)ccc1[N+](=O)[O-])C(=O)NC(C)c1ccc(F)cc1 (stereo unspecified),-5%,-20%
O/N=C/c1cccnc1Sc1ccccc1,-8%,-6%
CCOc1ccc(CN(C(=O)c2ccco2)C2CCS(=O)(=O)C2)cc1 (stereo unspecified),/,-5%
CC(C)(C)C(=O)NC(=S)NNC(=O)c1ccncc1,-22%,-11%
O=c1c(-c2ccco2)nc2ccccc2n1C(c1ccccn1)c1nc2ccccc2[nH]1 (stereo unspecified),?,-20%
COC(C(=O)Nc1ccnn1C1CCN(Cc2ccc(Cl)s2)CC1)c1ccccc1 (stereo unspecified),-20%,-11%
CC(C)(C)NC(=O)C1(C)CCC(=O)N1CCCn1ccnc1 (stereo unspecified),7%,-2%
CCOC(=O)c1cnc(-c2ccccc2)nc1Oc1ccc(C)cc1,/,0%
O=C(Nc1ccc(Cl)cc1)P(=O)(O)c1ccccc1,i,-2%
CCCOc1cccc(C(=O)Nc2cccc(-c3nc4ncccc4o3)c2C)c1,-19%,-5%
Cc1sc2ncn(-c3ccccc3)c(=O)c2c1C,i,-5%
COc1ccccc1CN1CC(C(=O)NCCc2cn[nH]c2)CCC1=O (stereo unspecified),-9%,-7%
Cc1ccc(S(=O)(=O)NNC(=O)c2cccs2)c(C)c1,-8%,-5%
O=C1CC(c2cccc(Cl)c2)CC(O)=C1C=NC1CCCC1 (stereo unspecified),-25%,-24%
CCc1nnc(NS(=O)(=O)c2ccc(NC(=O)COc3ccc4ccccc4c3)cc2)s1,i,6%
COc1ccc2[nH]c(=O)c(CN(C(=O)c3ccncc3)C(C)C)cc2c1,-11%[1.46 µM],-26%
Cc1[nH]c2ccccc2c1N=Nc1ccccc1F,?,-27%
CC(=O)c1cccc(-c2cnc3c(NC=O)cc(-c4ccccc4)cn23)c1,?,?
CC(C)(C)c1ccc(NC(=O)COC(=O)c2ccc([N+](=O)[O-])s2)cc1,-2%,-14%
COc1ccc(-c2nn(CCC(=O)O)cc2/C=C/C(=O)O)cc1[N+](=O)[O-],-8%,1%
CCCCc1c(C)c2ccc(OC)c(/C(C)=N\O)c2oc1=O,-6%,-18%
Cc1cnc(C(=O)OCc2nc3ccsc3c(=O)[nH]2)cn1,i,-6%
COc1ccc(NC(=O)COC(=O)CNS(=O)(=O)c2ccc(C)cc2)c(OC)c1,-9%,1%
CCOC(=O)C1(CCOC)CCN(C(=O)Cc2ccc3ccccc3c2)CC1,-3%,-9%
COc1ccc(NC(=O)CCn2nc(C)cc2C)cc1,/,-5%
CN(c1ccccc1)S(=O)(=O)c1cccc(NC(=O)C2CCCO2)c1 (stereo unspecified),-14%,-19%
O=S(=O)(c1ccc(Br)cc1)c1nnn2c1nc(NCCc1ccccc1)c1sccc12,-28%,-23%
NC(=O)c1c(NC(=O)Cc2cccs2)sc2c1CCC2,/,?
Cn1c(CSCc2ccccc2Cl)nnc1SCC(=O)Nc1nccs1,/,?
CCOC(=O)Cn1c(=O)oc2cc(S(=O)(=O)Nc3cc(OC)cc(OC)c3)ccc21,-7%,-3%
OCC(O)Cc1ccc2c(c1)OCO2 (stereo unspecified),0%,-6%

Reprinted at random: seven compounds from above.
SMILES,Vaccinia mCherry,VACV Venus inh
O/N=C/c1cccnc1Sc1ccccc1,-8%,-6%
O=c1c(-c2ccco2)nc2ccccc2n1C(c1ccccn1)c1nc2ccccc2[nH]1 (stereo unspecified),?,-20%
COc1ccc(NC(=O)COC(=O)CNS(=O)(=O)c2ccc(C)cc2)c(OC)c1,-9%,1%
CCCCc1c(C)c2ccc(OC)c(/C(C)=N\O)c2oc1=O,-6%,-18%
CC(C)(C)c1ccc(NC(=O)COC(=O)c2ccc([N+](=O)[O-])s2)cc1,-2%,-14%
CCOC(=O)C1(CCOC)CCN(C(=O)Cc2ccc3ccccc3c2)CC1,-3%,-9%
Cc1[nH]c2ccccc2c1N=Nc1ccccc1F,?,-27%

Following part:
SMILES,Vaccinia mCherry,VACV Venus inh
CC1(C)CC(N(Cc2ccco2)C(=O)Cc2ccccc2)CCO1 (stereo unspecified),/,-5%
Cc1ccc(C)c(NS(=O)(=O)c2ccc3oc(=O)c4ncn(C)c4c3c2)c1,-6%,7%
COC(=O)C1=C(C)NC2=C(C(=O)C(C(=O)OC)C(c3ccc(OC)cc3)C2)C1c1ccccn1 (stereo unspecified),0%,7%
CCn1cc(CNC(=O)CCc2ccc(OC)cc2)cn1,-4%,-6%
COc1ccc(NS(=O)(=O)c2ccc3oc(SC)nc3c2)cc1,-20%,-16%
O=C(Nc1ccnc(-c2ccncc2)n1)c1ccccc1Cl,-5%,0%
CC(=O)c1ccc(NC(=O)CCNS(=O)(=O)c2cc(Br)cnc2N)cc1,-3%,-19%
Cc1cc(N2CCN(C)CC2)ccc1NC(=O)c1cccc(S(=O)(=O)N2CCc3ccccc3C2)c1,-19%,?
COc1ccc(C(=O)CC2(O)C(=O)N(Cc3ccccc3Cl)c3ccccc32)cc1 (stereo unspecified),-15%,-12%
COc1ccccc1C(=O)N1CCCC(C)(C(=O)NS(=O)(=O)C2CC2)C1 (stereo unspecified),31%[activator],-9%
COc1cc(/C=C/c2nnc3c4ccccc4ncn23)cc(OC)c1OC,-15%,-30%
O=C(CNCc1ccccc1Cl)NCc1ccco1,-13%,-13%
O=C(O)CCC(=O)NNC(=O)c1ccc(-c2ccccc2)cc1,-2%,-3%
CC(=O)OCC(COC(C)=O)OC(C)=O,-2%&-2%,?
O=C(CCC(=O)Nc1ccccc1)NNC(=O)C(c1ccccc1)c1ccccc1,-21%,-5%
CCOc1ccc(CCNC(=O)CCn2c(=O)c3cccn3c3ccc(F)cc32)cc1,-14%,-20%
CCN1C(=NCCCOC(C)C)N[C@@H](c2ccccc2)[C@H](C(=O)OC)[C@H]1C,i,-12%
COc1ccccc1Oc1ccc(NC(=O)c2ccccc2C)cc1,?,?
O=c1[nH]c(Nc2ccc3c(c2)OCCO3)nnc1Cc1ccc(Cl)cc1,-8%,-18%
COc1ccc([N+](=O)[O-])cc1C1NN=C(c2cccc3ccccc23)S1 (stereo unspecified),-8%,-5%
CCC(C)NC(=O)c1nn(C)c(=O)c2ccccc12 (stereo unspecified),-12%,-12%
Cc1ccc(-n2ncc(C(=O)O)c2C2CCN(C(=O)OC(C)(C)C)CC2)cc1,-4%,-14%
CNC(=O)C1CCC(Cn2c(=O)c3sccc3n(CC(=O)NCc3ccc(C)cc3)c2=O)CC1 (stereo unspecified),-2%,-2%
COc1ccccc1OCCCn1c(C)c(C#N)c2ccccc21,-18%,-4%
CCN(CC)CCN1C(=O)C(O)=C(C(=O)c2cccs2)C1c1ccc(C)o1 (stereo unspecified),-8%,-6%
Cc1ccccc1NC(=O)c1cccc(NC(=O)c2ccccc2C(=O)O)c1,-1%,-8%
COCCC(=O)N1CCCC(C(=O)c2ccc(C(F)(F)F)cc2)C1 (stereo unspecified),-1%,-3%
COc1ccc(OC)c(NC(=O)CCC(=O)Nc2nnc(C(F)(F)F)s2)c1,?,0%
COc1ccccc1Oc1ccc(N2CC(C(=O)OCC(=O)c3ccccc3)CC2=O)cc1 (stereo unspecified),-16%,-5%
O=C1CN(C(=O)CSc2nc(-c3ccccc3)cs2)c2ccccc2N1,-28%,-22%
CC1CCCC(NC(=O)COC(=O)COc2ccc(Cl)cc2)C1C (stereo unspecified),-4%,-9%
Cc1cccc2nc(-c3ccccc3)c(-c3ccc(CN4CCC(n5c(=O)[nH]c6ccccc65)CC4)cc3)nc12,?,-20%
Cc1ccc(S(=O)(=O)/C(C#N)=C/c2c(N3CCOCC3)nc3ccccn3c2=O)cc1,-7%,-11%
CC(C)CCNC(=O)c1cccc(-n2cnc3cccnc32)c1,-11%,-2%
Cc1ccc(C)c(N2C(=O)CC(Cc3ccccc3)C2=O)c1 (stereo unspecified),i,6%
CC1CCC(Nc2nc3c(-c4ccc(Cl)cc4)nnn3c3ccccc23)CC1 (stereo unspecified),6%,7%
COc1cccc(OC)c1C(=O)NC(=S)Nc1ccc2oc(=O)ccc2c1,-29%,-21%
CC(=O)NCCC(=O)Nc1nc(-c2ccc3ccccc3c2)cs1,-12%,-10%
Cc1ccc(S(=O)(=O)NCC(=O)OCC(=O)c2cccs2)cc1,-12%,-1%
CN(C)c1ccncc1C(=O)Nc1ccc(F)cc1F,-11%,-8%
Cc1ccc(F)c(S(=O)(=O)NC(=O)C2(C)CCN2C(=O)COc2ccc(Cl)cc2)c1 (stereo unspecified),1%,7%
CC(NC(=O)COc1ccc(Br)cc1)C(=O)O (stereo unspecified),-19%,-6%
COc1ccccc1C(=O)Nc1ccccc1C(=O)OCc1cc(=O)n2c(C)csc2n1,-10%,-9%
Cc1ccc([N+](=O)[O-])c(-c2n[nH]c(=S)n2-c2cccc(Cl)c2)c1,-15%,-6%
O=c1[nH]nc(-c2ccc[nH]2)[nH]1,-5%,-12%
CCOC(=O)c1cnc(SCC(=O)N2CCN(c3ccccc3)CC2)nc1N,/,0%
CC(=O)C1=C(C)NC(SCC(=O)c2ccc(Cl)cc2)=C(C#N)C1c1ccco1 (stereo unspecified),-20%,-10%
COc1ccccc1CC(=O)NC1CC(C)(C)NC(C)(C)C1,-15%,-9%
COc1ccc(-c2c(-c3cc(OC)cc(OC)c3)n(C)c3ccc(-c4ccc5cc[nH]c5c4)cc23)cc1,-10%,-8%
Cc1cc2ccccc2n1CCNC(=O)c1ccccc1,/,59%[activator]
COc1cc(Cl)c(C)cc1NC(=O)CCNC(=O)c1ccco1,21%,-2%
N#C/C(=C\c1ccccc1F)c1nc2ccccc2c(=O)[nH]1,-5%,6%
Cc1ccc(C(=O)NNC(=O)Cc2ccccc2)cc1,i,-17%
FC(F)(F)c1cc(-c2ccccc2)nc(NCc2cccs2)n1,-15%,-9%
COc1ccc2[nH]c3c(c2c1)CCN1C(=O)N([C@@H](C)C(=O)NCCc2ccc(F)cc2)C(=O)[C@]31C,-14%,-15%
CCc1ccccc1NC(=O)c1nnn(CC(=O)Nc2ccccc2C)c1N,-5%,6%

Additional entries
SMILES,Vaccinia mCherry,VACV Venus inh
COc1ccc(/C=C\c2onc(C)c2S(=O)(=O)N2CCC(C(=O)NCCC(C)C)CC2)cc1,-11%,-18%
Cc1nn(C(=O)CN2C(=O)c3ccccc3C2=O)c(C)c1Br,-11%,-5%
N#Cc1ccsc1NC(=O)COC(=O)CCCSc1nc2ccccc2s1,4%,12%
CC(=O)Nc1ccc(-c2csc(NC(=O)C3CSC4(C)CCC(=O)N34)n2)cc1 (stereo unspecified),i,-9%
C=CCOc1ccccc1CNc1ccc2c(c1)OCCO2,-26%,-15%
CCCN1C(=O)COc2ccc(C(=O)c3ccccc3C(=O)O)cc21,-4%,-18%
Cc1ccc(-c2cc(C(F)F)n3ncc(C(=O)Nc4c(C)nn(Cc5c(Cl)cccc5Cl)c4C)c3n2)cc1,i,-14%
COc1cccc(NC(=O)c2sc3nc(C)c(C(=O)Nc4ccc(Cl)cc4)c(-c4ccc(Br)cc4)c3c2N)c1,-8%[7.34 µM],-8%[7.34 µM]
COc1ccc(C(=O)Nc2ccccc2SCc2cc(=O)n3nc(C)sc3n2)cc1OC,-13%,-4%
O=C(NCc1ccc(C(F)(F)F)cc1)C12CN(Cc3ccccc3)CC1C(c1cccc([N+](=O)[O-])c1)=NO2 (stereo unspecified),-17%,-15%
CC1=CC(=C2C(=O)NC(=O)NC2=O)C=C(C(F)(F)F)N1Cc1ccccc1,-3%,-20%
COc1ccc(NC(=S)Nc2cccc(C(F)(F)F)c2)c(C)c1,-4%,-13%
Cc1ccc(-c2nc3ccccc3[nH]2)s1,-14%,-6%
Cc1ccc(C)c(N2N=C(C(=O)Nc3cccc(S(=O)(=O)N4CCCCC4)c3)CCC2=O)c1,-5%,-15%
Cc1cc(=O)[nH]c(SCC(=O)N2CCN(C(=O)c3ccco3)CC2)n1,i,-11%
Cc1cc(C)cc(COn2ccnc2)c1,-15%,-15%
Cc1ccc(-n2ncc(C(=O)NCc3cccs3)c2C2CCN(C(=O)OC(C)(C)C)CC2)cc1C,-17%,-9%
O=C(NC(=S)N1CCCc2ccccc21)c1ccc([N+](=O)[O-])cc1,-8%,?
C/C(=N\NC(=O)c1ccccc1O)c1c(O)cc(C)oc1=O,-13%,-3%
O=C(NNc1nc2ccc(Cl)cc2s1)c1cc(-c2cccs2)nc2ccccc12,?,?
CCc1ccc(NC(=O)N2CC=C(c3c[nH]c4ccccc34)CC2)cc1,-21%,-20%
O=C(CSc1nc2ccccc2n1S(=O)(=O)c1ccccc1)N1CCCCC1,/,-6%
